Assay outcomes deposited in PubChem by several laboratories.
HIV Env fusion: inhibitors of HIV Env-mediated cell fusion; HeLa-JRFL Env/CEM21 cell fusion, luciferase; inhibition, % at 12.3 µM; actives 1.1% (n = 360,000); AID 651610;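 active means mean replicate inhibition score of at least 50 and every replicate individually at or above 50; inconclusive means only one of the two criteria met; inactive means mean below 50 and not all replicates reaching 50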;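 further: 0% = plate neutral controls and 100% = maraviroc near 300 nM; one replicate is shown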
MT1-MMP act inh: inhibitors of human MT1-MMP activation | actives 0.061% (n = 360,000) | HT1080 RFP-PRO-GFP cells, GFP/RFP ratio fluorescence, overnight; percent of plate control window, DMSO zero | P50281 | GFP/RFP ratio change, % at 20 µM;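 active means GFP/RFP ratio change of at least 30% with cell ATP level not reduced by more than half and red fluorescence within 50% of control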; further: strong numbers were not always called active
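Test system: HT1080 cells expressing an RFP-PRO-GFP fluorescent reporter construct / Compound dosing: single-point 20 µM compound, 1% DMSO / Schedule: cells overnight before dosing, compound overnight, 37 °C, 5% CO2 / Evaluation: GFP/RFP fluorescence ratio / Control set: DMSO and RFP-L50D-GFP cell wells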
eIF4H inh: inhibitors of RNA binding by human eIF4H; Q15056; eIF4H fluorescence polarization binding assay; inhibition, % at 35 µM; actives 0.94% (n = 290,000);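 active means 50% or more with normal probe brightness, or confirmed in later tests; inconclusive means above 50% with abnormal brightness, or retests that disagree; inactive means below 50% or failed in later tests; about a fifth of its hits are not listed in these tables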;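 further: calls also rest on retests at 20 µM and on dose response follow-up; 0% = protein and probe with vehicle and 100% = probe without protein; strong numbers were not always called active; many hits fall short of the cut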
Rce1 inh: blocks yeast Ras-converting enzyme | Q03530 | yeast membranes, quenched prenylated peptide cleavage fluorescence | calls only | actives 0.27% (n = 290,000);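 active means fall in fluorescence gain of 50% or more versus controls, with final raw signal at or below 3038400; inconclusive means same 50% fall but final raw signal above 3038400; inactive means fall in fluorescence gain under 50%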;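 further: plate controls were neutral control wells for no effect and wells lacking membranes for full effect; tested at 10 µM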
Target sequence (Q03530 whole entry, looked up): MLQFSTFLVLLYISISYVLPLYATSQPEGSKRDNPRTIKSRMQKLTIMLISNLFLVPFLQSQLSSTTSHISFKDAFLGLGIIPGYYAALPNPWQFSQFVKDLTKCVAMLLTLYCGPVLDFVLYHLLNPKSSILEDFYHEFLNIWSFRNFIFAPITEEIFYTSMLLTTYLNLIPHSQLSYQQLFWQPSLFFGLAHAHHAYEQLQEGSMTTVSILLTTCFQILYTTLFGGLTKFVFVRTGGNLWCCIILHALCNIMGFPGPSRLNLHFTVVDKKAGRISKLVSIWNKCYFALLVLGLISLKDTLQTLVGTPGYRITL
PABP FP inh: PABP-poly(A) binding inhibition. P11940. inhibition, % at 35 µM. PABP-poly(A) RNA binding, fluorescence polarization. actives 1% (n = 290,000);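 active means 50% or more with normal probe brightness, or confirmed in later tests; inconclusive means above 50% with abnormal brightness, or retests that disagree; inactive means below 50% or failed in later tests; about a fifth of its hits are not listed in these tables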;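 further: calls also rest on retests at 20 µM and on dose response follow-up; controls were probe without protein and protein plus probe with vehicle; some compounds called inactive have numbers as strong as hits; many hits fall short of the cut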
CSC inhib: cancer stem cell inhibition. cancer stem cell-like cells viability, luminescence. inhibition, % at 7.5 µM. actives 1.1% (n = 300,000);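 active means mean at 75% or more and at least half the replicates too; inconclusive means mean and replicates disagree; tested in HMLE shEcad cells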;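 further: 0% = median of negative and 100% = median of positive control wells; the first replicate is given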
Yeast UUG start: yeast start codon fidelity modulation; S. cerevisiae UUG-firefly luciferase reporter, luminescence/redox ratio; activity score, % at 18.7 µM; actives 0.13% (n = 350,000);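 active means replicate mean at a twofold rise or more, about +100% in these data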;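 further: firefly luciferase made from a UUG start codon reports start codon fidelity; reporter light over untreated wells divided by growth signal over untreated wells; some hits fall short of that in this replicate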
MT1-MMP act inh RFP: second read-out of MT1-MMP act inh, no call of its own (marks repeat the call); RFP signal change, %; measured here: RFP expression control read;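 0 = vehicle wells; hits needed this value within 50% of zero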
Numbers without * were called inactive; i = inactive; ? = inconclusive; . = no result given; & = joins results of further samples. Some of the compounds tested, so the mix of outcomes need not match the whole.

SMILES,CSC inhib,Rce1 inh,Yeast UUG start,eIF4H inh,MT1-MMP act inh,MT1-MMP act inh RFP,PABP FP inh,HIV Env fusion
Cc1ccc(S(=O)(=O)CC(C)N2CCOCC2)c(S(=O)(=O)CC(C)N2CCOCC2)c1 (configuration not stated),-9,i,-9,-1,-4,4,13,-57
O=C(c1ccccc1)N1N=C(c2ccccc2)CC1c1ccccc1[N+](=O)[O-] (configuration not stated),3,i,.,-11,-3,-4,-7,6
CCN(CC)S(=O)(=O)c1cccc(C(=O)Nc2cccnc2)c1,-4,i,5,12,4,5,10,8
CN(C)C(=O)/C(=C\c1ccncc1)NC(=O)c1ccccc1,-7,i,.,-1,1,0,-9,17
CSc1ccc(C(=O)C2CCCN(C(=O)c3nonc3C)C2)cc1 (configuration not stated),-9,i,-2,6,2,-1,7,2
c1cnc(N2CCN(Cc3c[nH]c4ccccc34)CC2)nc1,-22,i,-7,-5,3,1,-7,.
COCC(C)NC(=O)c1ccc(N(C)C)cc1 (configuration not stated),-4,i,-18,2,1,1,-2,12
CCN(CC)C(=O)c1sc(NC(=O)c2ccc(Br)o2)c(C(=O)OC)c1C,4,i,-21,1,7,0,-1,-10
COc1ccc(CNC(=O)CCn2c(=O)c3cccn3c3ccc(F)cc32)cc1,-12,i,-2,-2,0,-1,7,-2
Nc1nnc(SCC(=O)OCC(=O)NC2CCCCC2)s1,92*,i,-12,0,3,3,9,-9
CCOCCCNC(=S)Nc1ccc(S(N)(=O)=O)cc1,1,i,.,1,2,3,-7,-8
CCCn1nc(C(=O)N2CCc3ccccc3C2)c2ccccc2c1=O,-9,i,-4,-8,7,3,-2,.
O=C(Nc1ccc(NC(=O)C2CC2)nc1)c1cccc(F)c1,-2,i,-13,6,-3,4,-1,-42
CCOc1ccccc1C(=O)NCCC(=O)O,-6,i,3,2,-3,6,10,-23
COc1ccc(NC(=O)Nc2ccc(F)c(F)c2)c(OC)c1,11,i,.,-8,-2,-4,-9,2
Cc1c(C(C)C)c(=O)n(-c2ccc(S(=O)(=O)N3CCOCC3)cc2)n1C,-12,i,.,3,10,-7,4,5
COc1cc(/C=C(\C#N)C(=O)Nc2ccc(C(=O)O)cc2)ccc1OC(=O)c1cccc(F)c1,2,i,7,6,-10,5,1,-12
Nc1cc(C(=O)N2CCN(c3ccccc3Cl)CC2)ccc1N1CC2CC(C1)c1cccc(=O)n1C2 (configuration not stated),.,.,-20,.,1,2,.,47
COc1ccccc1/C=C/C(=O)OC(C)CN1CCOCC1 (configuration not stated),-8,i,-1,-5,-3,-5,6,13
O=c1/c(=C\c2cccc(O)c2)sc2nc(-c3ccccc3)c(-c3ccccc3)n12,91*,i,.,10,-6,-6,4,-76
CCC(=O)Nc1nnc(S(=O)(=O)N(C)Cc2ccco2)s1,-9,i,-24,.,-2,2,.,-2
CNCCCOc1ccc(C)cc1OC,-13,i,.,0,3,5,-3,3
COCc1cc(=O)oc2cc(NC(=O)c3ccc(C(C)(C)C)cc3)ccc12,18,i,-3,8,-7,1,5,.
Cc1ccc(Cl)cc1NC(=S)NCc1cccn1C,.,i,.,7,3,3,0,-13
COCCOc1cnn(-c2cc(Oc3ccc(C)cc3)ncn2)c(=O)c1Cl,.,i,.,-7,4,5,-15,.
COc1ccccc1CNS(=O)(=O)c1cc(C(=O)NCC2CCCO2)c(Cl)cc1Cl (configuration not stated),.,.,2,.,4,1,.,?
NNC(=O)c1ccc(O)cc1O,-11,i,.,5,3,3,11,3
Cc1cccc(COc2ccc(/C=N/NC(=O)c3nnn(-c4nonc4N)c3COc3ccc(F)cc3)cc2)c1,11,i,-9,1,2,2,10,3
COc1ccc(-c2coc3c(C(=O)Nc4cc(OC)c(OC)c(OC)c4)cccc23)c(C)c1,.,.,-12,.,-3,-26,.,-17
Cc1nc2ccc([N+](=O)[O-])cc2c(=O)n1Cc1cccc(F)c1,-8,i,-22,-4,1,5,3,8
CC(C)CCNC(=O)Cn1cc2c(n1)CCCCC2,-18,i,-6,0,0,-1,-10,5
COC(=O)c1ccn(CC(=O)NC2CCCCC2)n1,12,i,-21,4,4,8,10,-16
Cc1cn(C2CC3OCC3O2)c(=O)[nH]c1=O (configuration not stated),.,i,-19,-3,-2,2,-8,.
CCc1nc2c(sc3nc4c(cc32)COC(C)(C)C4)c(=O)n1CCN(CC)CC,19,i,-11,-8,-4,0,-17,5
O=C(O)c1cc(-c2ccc(/C=N/Nc3ccc(Cl)cc3)o2)ccc1Cl,48,i,-13,29,4,5,22,.
O=C(c1cc(S(=O)(=O)Nc2ccccc2F)c(Cl)cc1Cl)N1CCN(CCO)CC1,-12,i,-10,1,0,4,-8,-6
COc1ccccc1N1CCN(S(=O)(=O)c2c(C)[nH]c(C)c2C(=O)N2CCCC2)CC1,-1,i,-3,-2,-1,2,3,-1
Cc1ccc(C(=O)OCC(=O)NCCN2C(=O)CSC2=O)cc1,-10,i,.,1,0,4,4,2
O=C(NNC(=O)C1COc2ccccc2O1)c1ccccc1O (configuration not stated),.,.,-20,.,4,-3,.,3
N#CCc1ccc(NS(=O)(=O)c2cccs2)cc1,-16,i,-43,0,2,3,3,-55
CSc1nsc(SC)c1NC(=O)Nc1ccccn1,-6,i,-10,8,3,-1,-7,-16
CCn1c(CNC(=O)COc2ccc(C(C)C)cc2)nnc1SCC(=O)NC1CCCCC1C (configuration not stated),8,i,-16,-6,-9,2,-5,38
CC(C)N(CCNC(=O)c1oc(=O)c2ccccc2c1-c1ccccc1)Cc1ccco1,0,i,13,9,-1,-2,-3,-2
COc1ccc(C2/C=C\CN(C(=O)CC(C)C)CC(=O)N2Cc2ccc(F)cc2)cc1 (configuration not stated),.,i,-5,-2,-2,-1,8,29
CCOC(=O)N1CCN(CCC(=O)c2ccc(OC)cc2)CC1,-2,i,.,-7,0,2,9,-17
Cc1sc2nc(CSc3ccccc3)nc(N3CCN(C)CC3)c2c1C,14,i,.,-8,-12,-12,-8,22
COc1ccc(/C=C/C(=O)C(C(N)=O)=C2SCCS2)cc1,4,i,.,-10,-5,-6,-7,-8
CCOC(=O)CSc1nc2ccccc2n1CC(=O)NC(C)(C)C,2,i,-5,-10,3,4,-4,.
CNc1cncc(-c2c(OC)cccc2OC)n1,.,.,-9,.,-2,3,.,0
Cc1cccn2c(=O)nc(SCC(=O)Nc3ccc4c(c3)OCO4)nc12,1,i,-13,.,2,4,.,0

Following part.
SMILES,CSC inhib,Rce1 inh,Yeast UUG start,eIF4H inh,MT1-MMP act inh,MT1-MMP act inh RFP,PABP FP inh,HIV Env fusion
N#Cc1ccccc1NC(=O)C(=O)NCCCN1CCCC1=O,-10,i,-15,.,-2,0,.,-2
N#Cc1ccc(COC(=O)CSc2nnc(C3CCCCC3)n2N)cc1,-5,i,0,-1,0,3,3,-65
CCN1C(N(C)CCc2c[nH]c3ccccc23)=N[C@@H](c2cccc(C(F)(F)F)c2)C(C(=O)OC)=C1C,67,.,-12,.,-4,1,.,.
C#CCNC(=O)c1cc2sccc2n1C,-3,i,.,2,1,6,10,-2
COc1cc(C2C(C#N)=C(N)Oc3n[nH]c(C)c32)cc2c1OCO2 (configuration not stated),-5,i,-22,2,-1,7,5,-30
Cc1cc2nnc(SCC(=O)Nc3ccc(Cl)cc3)n2c(N)n1,-8,i,-9,-10,3,1,4,8
CN(C)CCNc1oc(COc2cccc(Cl)c2)nc1C#N,-9,i,-15,6,1,3,10,.
Cc1ccc(N2CC(C(=O)Nc3nnc(SCCN4CCOCC4)s3)CC2=O)cc1 (configuration not stated),-14,i,-6,-10,3,3,3,-9
COc1ccc(NC(=O)N(C)C[C@H]2Oc3ccc(NC(=O)NC(C)C)cc3C(=O)N([C@H](C)CO)C[C@@H]2C)cc1,-3,.,8&12,.,0,11,.,-24
Cc1c(-c2ccccc2)nnn1-c1ccc(F)cc1F,-11,i,-14,0,-5,-3,-3,-9
O=C(Cc1ccccc1)Nc1ccccc1N1CCN(c2ccccc2)CC1,14,i,10,-3,-9,-7,-4,.
Cn1cc(Br)c(C(=O)NC2C3CC4CC(C3)CC2C4)n1 (configuration not stated),0,i,-9,-8,1,6,0,7
C/C(=C\c1ccco1)CN1CCC(N2CCC(C(=O)N3CCOCC3)CC2)CC1,0,i,.,36,1,2,-1,4
CC(C)(C)c1ccc(C(=O)N2CCC2(C)C(=O)Nc2ccc3[nH]ncc3c2)cc1 (configuration not stated),.,.,-20,.,1,-22,.,4
O=C(O)c1cc2c(s1)CCCC2,-10,.,-22,-6,5,1,7,.
Cc1cc(=O)n2[nH]c(SCc3ccccc3)nc2n1,-8,i,-8,-5,8,7,-4,.
COc1cnc(-c2ccccn2)nc1Oc1cccc(Cl)c1,1,i,-43,4,-7,-1,-18,-12
Cc1ccc(NC(=O)C(C)c2ccc([N+](=O)[O-])cc2)cc1Cl (configuration not stated),16,i,.,-12,8,4,-22,-9
O=C(CSc1ccsc1[N+](=O)[O-])NC1CCCC1,-10,i,.,15,3,-2,-9,21
C=CCN(Cc1cccs1)C(=O)CN1CCN(S(=O)(=O)c2ccc3c(c2)OCCCO3)CC1,.,.,-11,.,-4,-10,.,-9
C=CCNC(=O)C1CC(=O)N(c2ccc(OCc3ccccc3Cl)cc2)C1 (configuration not stated),8,i,-20,0,5,4,0,-15
COC(=O)C1CCN(C(=O)C2CCC(=O)N(CCc3cccc(F)c3)C2)CC1 (configuration not stated),-2,i,-8,-12,-1,0,0,-16
Cc1ccccc1NC(=S)N(CCCN1CCOCC1)Cc1ccccn1,.,i,.,-6,-1,7,4,.
CCOC(=O)C1(CCOc2ccccc2)CCN(Cc2cccc(OC)c2OC)CC1,15,i,-14,0,1,-6,9,3
Brc1ccc(-c2csc(NNC3=NCCCCC3)n2)cc1,16,i,-12,8,9,6,-6,-87
O=C(CCC1CCCN(C(=O)c2ccccc2Cl)C1)N1CCN(c2ccccn2)CC1 (configuration not stated),6,i,-4,-8,0,-13,-1,0
COc1ccc(CNS(=O)(=O)c2ccccc2Br)cc1,9,i,.,0,.,.,-4,.
COc1ccccc1CNC(=O)CN(C)CC(=O)Nc1ccc(F)c(F)c1F,-14,.,-5,.,-1,-1,.,.
Cc1ccc(-c2nn(-c3ccccc3)cc2C=C2SC(=S)N(CCS(=O)(=O)O)C2=O)cc1,.,.,-6,.,10,8,.,-9
O=C(CSc1ccc2nnc(CCNC(=O)c3ccccc3)n2n1)NCc1ccccc1,.,i,-6,-6,-4,2,-1,6
CC1=C(C(=O)OCc2ccccc2)C(c2ccc3ccccc3c2)NC(=O)N1CCCC(=O)O (configuration not stated),2,i,-26,5,2,2,17,4
COc1ccc(-c2ccc(-c3cc(=O)oc4c(C(C)C)ccc(C)c34)cc2)cc1,.,.,4,.,-5,-18,.,-24
CCCOc1ccc2c(CC)cc(=O)oc2c1C,-35,i,.,1,2,-1,3,.
CC(=O)c1ccc(S(=O)(=O)Nc2ccc(C(=O)N(C)CC(=O)Nc3cccc(C)c3C)cc2)cc1,.,.,-18,.,2,-2,.,-2
